# Screens (PubChem BioAssay)
# KCNQ2 block: KCNQ2 potassium channel inhibitors, primary screen, cell-based, CHO-K1, FluxOR thallium flux, B-score (AID 2156); 20 min; stronger effect = lower value; only compounds with negative scores are shown here; some inactives read as strong as hits; B-score at 10 µM; actives 1.1% (n = 310,000);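 active = fluorescence ratio B-score at most minus 3 library SDs, with starting brightness B-score within 2 library SDs, cut at about -5.5 in these data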
# Target sequence (O88943 whole entry, looked up): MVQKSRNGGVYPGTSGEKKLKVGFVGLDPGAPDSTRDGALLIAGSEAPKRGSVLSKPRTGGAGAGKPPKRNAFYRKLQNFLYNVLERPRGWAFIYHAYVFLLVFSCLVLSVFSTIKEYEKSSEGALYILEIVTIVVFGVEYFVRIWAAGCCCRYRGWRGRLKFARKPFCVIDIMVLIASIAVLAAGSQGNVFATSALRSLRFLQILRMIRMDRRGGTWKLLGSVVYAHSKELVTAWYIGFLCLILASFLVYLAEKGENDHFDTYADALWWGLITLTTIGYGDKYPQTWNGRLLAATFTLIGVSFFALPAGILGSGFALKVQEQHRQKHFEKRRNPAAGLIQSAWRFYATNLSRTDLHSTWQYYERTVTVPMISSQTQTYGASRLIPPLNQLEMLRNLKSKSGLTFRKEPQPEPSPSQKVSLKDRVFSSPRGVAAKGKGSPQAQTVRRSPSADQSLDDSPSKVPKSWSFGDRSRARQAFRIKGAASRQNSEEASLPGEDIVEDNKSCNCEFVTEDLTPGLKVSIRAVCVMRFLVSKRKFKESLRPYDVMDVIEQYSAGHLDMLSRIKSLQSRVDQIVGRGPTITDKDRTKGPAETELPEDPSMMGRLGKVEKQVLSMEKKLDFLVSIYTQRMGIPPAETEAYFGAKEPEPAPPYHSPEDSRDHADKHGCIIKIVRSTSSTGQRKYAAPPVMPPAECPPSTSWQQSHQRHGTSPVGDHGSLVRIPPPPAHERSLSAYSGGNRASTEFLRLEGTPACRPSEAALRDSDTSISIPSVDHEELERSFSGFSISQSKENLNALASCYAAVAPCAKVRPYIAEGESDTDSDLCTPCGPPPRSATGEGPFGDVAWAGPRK
# KCNQ2 block baseline: also measured in KCNQ2 block; calls as there; B-score; measured here: initial fluorescence intensity artifact check;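 brightness before thallium and not channel activity; 0 = typical well and far values either way flag optical interference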
# * marks the source's active call; other numbers are inactive results; i = inactive.
# Results follow in this order: KCNQ2 block	KCNQ2 block baseline
- CN(CC(O)CN1CCOCC1)S(=O)(=O)O (stereo unspecified)
 : i	1.47
- Cc1cc(C(=O)c2ccc(Cl)cc2)c(NC(=O)CCl)s1
 : i	-0.59
- CC1(c2nnc(Cc3ccccc3)o2)CC(c2ccccc2Br)=NO1 (stereo unspecified)
 : i	-0.02
- CCOC(=O)N1CCN(Cc2cn[nH]c2-c2ccc(-c3ccccc3)cc2)CC1
 : i	1.75
- CCOC(=O)C1=C(O)C(=O)N(CCCn2ccnc2)C1c1ccc(OC)cc1 (stereo unspecified)
 : i	0.27
- CCCCn1c(N)c(N(CC(C)C)C(=O)C(C)SCc2nc3sc(C)c(C)c3c(=O)[nH]2)c(=O)[nH]c1=O (stereo unspecified)
 : i	-0.46
- Nc1nc(-c2ccccc2)nn1S(=O)(=O)c1ccccc1
 : i	-1.26
- COc1ccc(OC)c(NC(=O)CSc2nnc(N)s2)c1
 : i	1.01
- COc1ccccc1NC(=O)[C@H](COCc1ccccc1)NC(=O)OC(C)(C)C
 : -6.32*	0.07*
- COc1ccc(CNc2ncnc3sccc23)cc1
 : i	3.49
- O=C(NC(Cc1ccccc1)C(=O)O)c1ccc(S(=O)(=O)N2CCOCC2)cc1 (stereo unspecified)
 : i	-0.01
- COc1ccc(N2CCN(C(=O)c3ccc(Oc4ccc(C(F)(F)F)cn4)cc3)CC2)cc1
 : i	1.9
- COc1ccc(-n2cc(CN3CCCC3)c(-c3cccc(F)c3)n2)cc1
 : i	0.02
- c1ccc(-c2[nH]ncc2CN2CCN(Cc3ccc4c(c3)OCO4)CC2)cc1
 : i	0.16
- COc1cc(C(=O)NNC(=O)c2ccc(S(=O)(=O)N3CCCCC3)cc2)cc(OC)c1OC
 : i	-1.15
- Cc1ccc(CC(=O)O/N=C(\N)c2ccccn2)cc1
 : i	0.05
- Cc1nc(-c2nc(-c3c(C(=O)NNC(=O)Nc4ccccc4)noc3C)cs2)cs1
 : i	-0.97
- COCCCNC(=O)Cn1nnc(-c2ccc(NC(=O)c3ccc(F)cc3)cc2)n1
 : i	-0.01
- COc1ccc(CCCNC(=O)C2CCC(=O)N(CCCN3CCCC3=O)C2)cc1 (stereo unspecified)
 : i	-1.22
- CCCCNc1c2c(nc3c(-c4ccccc4)c(C)nn13)CCC2
 : i	-1.21

# Complete entries, looked up by structure. Values in the order: KCNQ2 block | KCNQ2 block baseline
# CCCCNc1c2c(nc3c(-c4ccccc4)c(C)nn13)CCC2 across the screens: i | -1.21
# COc1cc(C(=O)NNC(=O)c2ccc(S(=O)(=O)N3CCCCC3)cc2)cc(OC)c1OC across the screens: i | -1.15
# Nc1nc(-c2ccccc2)nn1S(=O)(=O)c1ccccc1 across the screens: i | -1.26
# CC1(c2nnc(Cc3ccccc3)o2)CC(c2ccccc2Br)=NO1 (stereo unspecified) across the screens: i | -0.02
# CCOC(=O)N1CCN(Cc2cn[nH]c2-c2ccc(-c3ccccc3)cc2)CC1 across the screens: i | 1.75

# Additional structures follow.
# Results follow in this order: KCNQ2 block	KCNQ2 block baseline
- N#C/C(=C(/O)CSc1n[nH]c(N)n1)c1nc2ccccc2[nH]1
 : i	-0.13
- CC1=C(C(=O)OCc2ccc3c(c2)OCO3)C(c2ccc(O)c([N+](=O)[O-])c2)NC(=O)N1 (stereo unspecified)
 : i	-0.39
- CN(Cc1nccs1)C(=O)c1ccc(OC2CCN(Cc3ccccn3)CC2)cc1
 : i	-0.02
- Cc1cccc(-n2c(SCC(=O)N3CC(=O)Nc4ccccc43)nc3ccccc3c2=O)c1
 : i	0.57
- COCC(C)N1C(=O)Cc2c1nc(N)c1c(N)nc(N3CCN(c4ccccc4F)CC3)c(C#N)c21 (stereo unspecified)
 : i	0.73
- O=C(/C=C/c1cnc2ccccc2n1)NC12CC3CC(CC(C3)C1)C2
 : i	1.82
- c1ccc2c(c1)CC1(CCCC1)N=C2N1CCOCC1
 : i	-0.01
- CN(C)Cc1c(C(=O)N/N=C/c2ccc(-c3ccccc3)cc2)nnn1-c1nonc1N
 : i	0.32
- COCCCN(C(=O)c1ccc(N2CCCC2=O)cc1)c1c(N)n(Cc2ccccc2)c(=O)[nH]c1=O
 : i	1.14
- COc1ccc(CC(=O)Nc2nc(-c3cccnc3)cs2)cc1
 : i	1.87
- CC1(C)Cc2c(c(-c3ccco3)nc3n[nH]c(N)c23)CO1
 : i	-0.31
- CCOc1ccc(N(CC(=O)NC2CC3CCC2C3)S(=O)(=O)c2ccc(C)cc2)cc1 (stereo unspecified)
 : i	1.82
- COc1ccc(C(=O)Nc2ccccc2C(=O)NCc2ccco2)cc1OC
 : i	-0.11
- Cn1c(SCc2nc(-c3ccc(Cl)cc3)no2)nnc1-c1cccs1
 : i	3.23
- CN(CC(O)CN)CC(O)CN1CCCCC1 (stereo unspecified)
 : i	-0.39
- Cc1ccc(C(=O)Nc2ccc(S(=O)(=O)N3CCCC3)cc2)cc1
 : i	-0.79
- O=C(Nc1cnccn1)Nc1ccccc1Cl
 : i	0.3
- Cc1ccc2nc(-c3ccc(O)cc3)oc2c1
 : i	2.87
- COc1ccc(C(CCNCc2ccc(N(C)C)cc2)c2ccccc2OC)cc1 (stereo unspecified)
 : i	-0.79
- COc1ccc(N(CC(=O)NC2CC3CCC2C3)S(=O)(=O)c2ccc(C)c([N+](=O)[O-])c2)cc1 (stereo unspecified)
 : i	-0.13

# Retrieved by compound from the entries so far (two):
# Results follow in this order: KCNQ2 block	KCNQ2 block baseline
- CC1(C)Cc2c(c(-c3ccco3)nc3n[nH]c(N)c23)CO1
 : i	-0.31
- Cc1ccc2nc(-c3ccc(O)cc3)oc2c1
 : i	2.87

# Further records follow:
# Results follow in this order: KCNQ2 block	KCNQ2 block baseline
- CCCCN(C)CCNC(=O)CCn1nc(-c2ccc(Cl)cc2)ccc1=O
 : i	-0.97
- COc1cc(-c2noc(-c3ccccc3C(=O)NCc3ccco3)n2)cc(OC)c1OC
 : i	0.04
- COc1ccc(N2C(=O)CSC2c2cccc(F)c2)cc1 (stereo unspecified)
 : i	0.13
- COC(=O)c1c(-c2ccccc2)c(-c2ccccc2)nn(C)c1=O
 : i	-0.02
- CCN(c1ccccc1)S(=O)(=O)c1ccc(OC)c(NC(=O)c2cccs2)c1
 : i	-0.45
- COCCOc1ccc(C(F)(F)F)cc1NC(=O)c1ccc(F)cc1
 : i	1.01
- N#Cc1ccccc1NC(=O)COC(=O)COc1ccccc1[N+](=O)[O-]
 : i	1.89
- CON(C)c1nc(NCC(C)C)nc(OCC#N)n1
 : i	-1.01
- COc1ccc(S(=O)NC2CCCCC2)c(OC)c1C (stereo unspecified)
 : i	0.06
- COc1cc(OC)cc(-c2nnc(SCC(=O)N(C(C)C)C(C)C)o2)c1
 : i	-0.19
- CN1CCN(S(=O)(=O)c2cccc(C(=O)Oc3ccccc3Cl)c2)CC1
 : i	-0.49
- COc1ccc(C(=O)NCCN2CCOCC2)c(OC)c1OC
 : i	-0.25
- CCCCN(CCCC)CCCNC(=O)c1ccc2nc(-c3ccccc3NC(C)=O)c(=O)[nH]c2c1
 : i	0.16
- CC(=O)Oc1ccc(N2C(=O)C3C4C=CC(O4)C3C2=O)cc1 (stereo unspecified)
 : i	2.38
- CS(=O)(=O)N(CC(=O)NC1CCCCCC1)Cc1ccc(Cl)cc1
 : i	2.38
- COCCn1c(N)c(C(=O)NCc2cccs2)c2nc3ccccc3nc21
 : i	1.69
- O=C(NC1CCN(Cc2nnnn2CCc2ccccc2)CC1)c1ccccc1F
 : i	0.68
- CN(Cc1nc2ccccc2n1C)C(=O)c1cccs1
 : i	-0.11
- COc1ccc(C(=O)Nc2cc(C)on2)cc1OC
 : i	0.93
- CN(CCOc1ccccc1)C(=O)c1cc(COc2c(F)cccc2F)on1
 : i	-1.94
- c1ccc2c(c1)CCCC2NC1=NCCC1 (stereo unspecified)
 : i	2.33
- CN(CC(O)COc1ccc2ccccc2c1)C1CCCCC1 (stereo unspecified)
 : i	-0.05
- CC(=O)OCC(=O)[C@@]1(O)CC[C@H]2[C@@H]3C[C@H](C)C4=CC(=O)C=C[C@]4(C)[C@H]3[C@@H](O)C[C@@]21C
 : i	1.22
- O=C(Nc1ccc(CN2CCOCC2)cc1)c1ccc(Cl)cc1Cl
 : i	-1.75
- CCc1nc(Nc2ccc(N3CCN(C(C)=O)CC3)cc2)c2oc3ccccc3c2n1
 : i	-0.01
- Cc1ccccc1-c1noc(-c2ccccc2F)n1
 : i	1.99
- CCOc1ccccc1Oc1c(C)oc2cc(OC(=O)c3ccco3)ccc2c1=O
 : i	-0.24
- CC(=O)c1cccc(NC(=O)N2CCCC2C(=O)Nc2cc(C)ccc2C)c1 (stereo unspecified)
 : i	-2.08
- O=C(Nc1ccccc1)C(=O)Nc1ccccn1
 : i	1.18
- O=C(CSc1c2c(nc3cc(Cl)ccc13)CCCC2)NCCN1CCOCC1
 : i	-1.7
- CCOc1ccc(S(=O)(=O)Nc2nc3ccccc3nc2-n2ccc(=NC(=O)c3ccccc3C)cc2)cc1
 : i	-0.79
- c1ccc2c(Nc3ccc4c(c3)OCCO4)c3c(nc2c1)CCCC3
 : i	-1.44
- CCCN(CCC)C(=O)C1CCCN(S(=O)(=O)c2ccc3c(c2)oc(=O)n3C)C1 (stereo unspecified)
 : i	-0.54
- COc1ccccc1C(=O)NCC(=O)N/N=C(\C)Cc1ccccc1
 : i	2.47
- Cc1cc(NC(=O)CCC(=O)N(CC(C)C)C(C(=O)NC(C)(C)C)c2ccccc2Cl)no1 (stereo unspecified)
 : i	2.03
- Cc1c(N=C2SCC(=O)N2/N=C/c2ccccc2Cl)c(=O)n(-c2ccccc2)n1C
 : i	-1.85
- COc1ccc(Cl)cc1NC(=S)N(Cc1cccnc1)Cc1ccco1
 : i	-1.57
- COc1ccc(OC)c(-c2cc(C(=O)Nc3c(C)nn(Cc4ccc(Cl)cc4)c3C)no2)c1
 : i	-1.24
- Cn1c(CCNC(=O)c2ccco2)nc2cc(NS(=O)(=O)c3ccc(Cl)cc3)ccc21
 : i	-0.04
- COc1ccc(C)cc1-n1cnnn1
 : i	-0.23
- C/C(=N\OCc1ccccc1C#N)c1cc2ccccc2o1
 : i	-0.92
- CCOc1ccc2c(c1)C(C)=CC(C)(C)N2S(=O)(=O)c1ccc(C)cc1
 : i	0.83
- Brc1ccccc1-c1nnc(-c2cccnc2)o1
 : i	-0.62
- CCOc1ccccc1NC(=O)NCCCCc1ccccc1
 : i	-0.96
- Cc1cc(C)c(C)c(S(=O)(=O)N2C(=S)NC(=O)C2CC(C)C)c1C (stereo unspecified)
 : i	0.91
- CC(N=c1ccccn1C(=O)Nc1ccc(F)cc1)c1ccco1 (stereo unspecified)
 : i	0.66
- CC1CCN(CCCCOc2ccc(F)cc2)CC1
 : i	-0.79
- COc1ccc(OS(=O)(=O)Cc2ccccc2)cc1
 : i	0.31
- CN1CCCCc2c1nc1c(c2N)CCCC1
 : i	0.06
- CC1CN(C(=S)Nc2ccc(Br)cc2Cl)CC(C)O1 (stereo unspecified)
 : i	0.95
- CC(=O)c1cccc(NC(=O)c2cc(-c3cccs3)on2)c1
 : i	0.15
- CCOC(=O)C1=C(C)N(CC(C)C)C(=O)/C1=C\c1ccc(OCC(=O)Nc2ccccc2)cc1
 : i	3.65
- C(=C\c1ccncc1)/c1ccncc1
 : i	0.05
- CCOC(=O)N/N=C(/C)c1ccc([N+](=O)[O-])o1
 : i	0.13
- Cc1cc(C)cc(NC(=O)NCC(O)COc2ccc([N+](=O)[O-])cc2)c1 (stereo unspecified)
 : i	-0.83
- CCOC(=O)c1sc(N)c(C#N)c1COC(=O)CNC(=O)c1ccccc1
 : i	2.43
- CCC1=C(OC(=O)N(CC)CC)N2C(=O)OC(=NCC3CC3)[C@]2(Cc2ccccc2)[C@H]2C1=CC[C@H]1C(=O)N(c3ccccc3)C(=O)[C@H]12
 : i	-0.57
- COC(=O)Cc1ccc(NC(=S)NCc2ccccc2)cc1
 : i	0.62
- COc1nc(-c2ccccc2)ccc1-c1noc(-c2ccccc2)n1
 : i	-1.44
- Cc1ccccc1Cn1ccc(NC(=O)c2cnn3c(C(F)(F)F)cc(-c4ccco4)nc23)n1
 : i	0.39

# Further compounds
# Results follow in this order: KCNQ2 block	KCNQ2 block baseline
- c1ccc(CCNc2ccc3nncn3n2)cc1
 : i	0.43
- O=C(CN1CCCCCC1)Nc1ccc(Br)cc1Br
 : i	1.03
- O=C(NC(=O)c1ccccc1)NC(=O)c1ccccc1
 : i	0.67
- CCOC(=O)c1sc2nc(SC)nc(-c3ccc(Cl)cc3)c2c1N
 : i	-0.49
- Cc1ccc(-c2csc(=S)n2CC(=O)OCC(=O)NC(C)C(C)C)cc1 (stereo unspecified)
 : i	-0.01
- Cc1cc(/C=N/Nc2ncnc(N)c2[N+](=O)[O-])c(C)n1-c1ccccc1
 : i	0.77
- CN1CCN(CC(O)COCc2ccc3c(c2)OCO3)CC1 (stereo unspecified)
 : i	1.58
- CCOC(=O)c1c(-c2cccc([N+](=O)[O-])c2)csc1NC(=O)CCCOc1ccccc1
 : i	-0.81
- S=C(NC1CCCC1)N1CCN(C/C=C/c2ccccc2)CC1
 : i	2.86
- CC(=O)Nc1ccc2c(c1)n(C)c(=O)n2C
 : i	1.77
- Cc1ccc(NC(=O)Cn2nc(C)c3ccccc3c2=O)cc1
 : i	-0.55
- Cn1nnnc1SCC(=O)NC1CCCC1
 : i	-1.94
- Cc1cc(CN2CCCC(CO)(Cc3cccc(Cl)c3)C2)n[nH]1 (stereo unspecified)
 : i	-0.27
- Cc1cc(=O)oc(C)c1C(=O)Nc1ccc2ncccc2c1
 : i	0.94
- COc1cccc(CN(C(=O)c2ccc([N+](=O)[O-])cc2)C2CCS(=O)(=O)C2)c1 (stereo unspecified)
 : i	2.6
- Cc1ccccc1NC(=O)c1cccc2c1C(=O)N(C1CCCCC1)C2
 : i	-0.49
- CC(C)OC(=O)c1ccc(NC(=O)CSc2nc3ncccc3[nH]2)cc1
 : i	0.37
- COc1ccccc1NC(=O)c1ccc(SCC(=O)NCc2ccccc2Cl)c([N+](=O)[O-])c1
 : i	0.51
- O=C(N=C1SC2CS(=O)(=O)CC2N1Cc1ccccc1Cl)C1CC1 (stereo unspecified)
 : i	0.01
- CC(C)c1ccc(S(=O)(=O)NCc2ccc3c(c2)OCO3)cc1
 : i	0.13

# This is a subset. The share of hits here may be higher or lower than overall.
